KCNQ2 block: KCNQ2 potassium channel inhibitors, primary screen, cell-based, CHO-K1, FluxOR thallium flux, B-score (AID 2156); Potassium voltage-gated channel subfamily KQT member 2 (Rattus norvegicus), O88943; 20 min; active compounds read low; only compounds with negative scores are shown here; some inactives read as strong as hits; B-score at 10 µM; 310,000 tested, 1.1% active;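 active = fluorescence ratio B-score at most minus 3 library SDs, with starting brightness B-score within 2 library SDs, cut at about -5.5 in these data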
Target sequence (O88943 whole entry, looked up): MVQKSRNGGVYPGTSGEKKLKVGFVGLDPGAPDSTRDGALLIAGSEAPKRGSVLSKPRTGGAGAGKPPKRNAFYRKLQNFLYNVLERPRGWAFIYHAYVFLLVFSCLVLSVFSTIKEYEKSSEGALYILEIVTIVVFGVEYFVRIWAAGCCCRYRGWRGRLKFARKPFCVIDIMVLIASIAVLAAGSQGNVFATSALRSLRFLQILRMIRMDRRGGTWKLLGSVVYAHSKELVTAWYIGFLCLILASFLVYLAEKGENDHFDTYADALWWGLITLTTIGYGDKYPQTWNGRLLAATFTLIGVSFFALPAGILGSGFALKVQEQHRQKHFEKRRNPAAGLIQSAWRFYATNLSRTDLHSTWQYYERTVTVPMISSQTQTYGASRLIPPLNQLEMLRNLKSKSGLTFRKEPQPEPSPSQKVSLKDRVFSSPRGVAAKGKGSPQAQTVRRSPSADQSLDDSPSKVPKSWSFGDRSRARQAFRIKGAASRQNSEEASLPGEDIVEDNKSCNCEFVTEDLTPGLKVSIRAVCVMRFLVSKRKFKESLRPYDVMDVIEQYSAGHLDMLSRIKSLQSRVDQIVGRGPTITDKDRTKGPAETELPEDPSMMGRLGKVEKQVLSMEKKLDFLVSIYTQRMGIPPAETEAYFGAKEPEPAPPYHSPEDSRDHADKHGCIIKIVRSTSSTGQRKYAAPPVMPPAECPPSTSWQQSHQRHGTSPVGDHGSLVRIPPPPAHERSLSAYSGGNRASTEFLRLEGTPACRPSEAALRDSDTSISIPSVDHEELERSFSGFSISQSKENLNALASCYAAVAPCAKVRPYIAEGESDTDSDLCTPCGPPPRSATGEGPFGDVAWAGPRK
KCNQ2 block baseline: second read-out of KCNQ2 block, no call of its own (marks repeat the call); B-score; measured here: initial fluorescence intensity artifact check;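 brightness before thallium and not channel activity; 0 = typical well and far values either way flag optical interference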
Numbers without * were called inactive; i = inactive. The list is partial (hit frequency here may not be typical).

SMILES | KCNQ2 block | KCNQ2 block baseline
Cc1cccc(N2CCN(C(=O)NCc3ccc(Cl)cc3)CC2)c1 | i | 0.73
CC(C)(C)OC(=O)NN1CC(=O)N2Cc3ccccc3C[C@@H]2C1=O | i | -2.4
COc1ccccc1N1CCc2c(C)nc3c(OC)cccc3c21 | i | -0.77
CCCCCOc1ccc(C(O)C(CN2CCOCC2)c2ccccc2)cc1 (stereo not drawn) | i | -2.4
CN(Cc1ccccc1)C(=O)CCc1ccccc1 | i | 0.07
CCn1c(=O)c(C(=O)Nc2ccccn2)c(O)c2ccccc21 | i | 0.26
CC(NC(=O)C(=O)NN=C1CCCCCCC1)c1ccccc1 (stereo not drawn) | i | 2.1
CCOc1ccc(-c2nnc(NC(=O)c3ccc(OCC(C)C)c(OC)c3)o2)cc1 | i | 0.6
CCOc1ccc(/C=C/C(=O)Oc2ccccc2)cc1 | i | 0.75
Cc1ccc(NC(=O)C2CC(=O)NC(N3CCCCC3)=N2)cc1Cl (stereo not drawn) | i | -0.95
CCN(CC(=O)NCc1cccs1)C(=O)CCOc1ccccc1C | i | -1
Cc1ccc2[nH]c3c(=O)n(CC(=O)NCCc4ccc(Cl)cc4)ncc3c2c1 | i | 0.95
CSCCC(NS(=O)(=O)c1ccc(Cl)cc1)C(=O)OCc1c(Cl)cccc1Cl (stereo not drawn) | i | -0.15
Cc1ccc2nc(NC(=O)C3CCCN(S(=O)(=O)c4cccc5nsnc45)C3)sc2c1 (stereo not drawn) | i | -2.1
O=C(COC(=O)Cc1c[nH]c2ccccc12)NCCc1ccccc1 | i | -0.25
CCn1c(COc2ccc(OC)cc2)nnc1SCC(=O)Nc1cc(OC)ccc1OC | i | -0.41
CCNC(=S)Nc1cc(Cl)ccc1Oc1ccccc1 | i | -0.54
CN(C1CCCCC1)S(=O)(=O)c1ccc(NC(=O)c2ccco2)cc1 | i | -0.77
CCCc1nnc(NC(=O)CN2C(=O)c3ccccc3C2=O)s1 | i | 0.59
O=C(NCCCCNC(=O)C(F)(F)F)C(F)(F)F | i | 0.07
O=C1NC(=Nc2ccc(F)cc2)SC1Cc1ccc(F)cc1 (stereo not drawn) | i | -1.1
CCN(CC)CC(=O)N1CCCC(C(=O)c2ccccc2OC)C1 (stereo not drawn) | i | -0.77
CCOc1cc(/C=N/N=C(N)N)ccc1OCc1ccc(Cl)cc1 | -10* | 0.01*
CC1(c2nnc(-c3ccccc3)o2)CC(c2cccc(Cl)c2)=NO1 (stereo not drawn) | i | -0.19
CCN(c1ccccc1)c1nc(C#N)nc(N(CC)c2ccccc2)n1 | -6.7* | -0.3*
CN=c1scc(C)n1/N=C/c1ccc2c(c1)OCO2 | i | -0.51
CC1Cc2cc(/C(O)=C3/C(=O)C(=O)N(Cc4ccco4)C3c3cccs3)ccc2O1 (stereo not drawn) | i | 4.1
CC(C)CNc1nc(N)c([N+](=O)[O-])c(NC2CCCCC2)n1 | i | -1.2
Cc1c(/C=N/NC(=O)c2cccs2)c2ccccc2n1Cc1ccccc1Cl | i | -0.1
CCOC(=O)CSc1nc2ccccc2c(=O)n1CC(C)C | i | 0.52

Entries of single compounds, looked up by structure.
`CC(C)CNc1nc(N)c([N+](=O)[O-])c(NC2CCCCC2)n1` is listed as KCNQ2 block = i; KCNQ2 block baseline = -1.2
`CCOc1cc(/C=N/N=C(N)N)ccc1OCc1ccc(Cl)cc1` is listed as KCNQ2 block = -10*; KCNQ2 block baseline = 0.01*
`O=C(NCCCCNC(=O)C(F)(F)F)C(F)(F)F` is listed as KCNQ2 block = i; KCNQ2 block baseline = 0.07

New compounds follow
SMILES | KCNQ2 block | KCNQ2 block baseline
O=P(O)(CCc1ccccn1)CN1CCOCC1 | i | 2.7
Cc1cccc(OCCC(=O)Nc2cc(S(=O)(=O)N3CCCCC3)ccc2N2CCOCC2)c1 | i | -0.96
Cc1ccccc1Nc1c(-c2ccncc2)nc2ccc(Br)cn12 | i | 1.6
CCOC(=O)c1cc(S(=O)(=O)N2CCCC2)cn1C | i | -0.21
CCc1ccc(CN(C)C(C)C(=O)NCc2ccccc2)cc1 (stereo not drawn) | i | 1.2
[O-]/C(=C(\C(=S)NCc1ccccc1)[n+]1ccccc1)c1ccc(Cl)s1 | i | 1.1
O=C(CCN=C1NS(=O)(=O)c2ccccc21)OCC(=O)c1ccccc1 | i | 1.8
O=C(NCC(c1ccco1)N1CCN(c2ccccc2F)CC1)C1CCCCC1 (stereo not drawn) | i | 0.37
O=c1[nH]c(/C=C/c2ccccc2[N+](=O)[O-])nc2ccccc12 | i | -0.14
COC(=O)C1=C(C)NC(=O)C1(NS(=O)(=O)c1ccc(C)cc1)C(F)(F)F (stereo not drawn) | i | 4
Cc1ccc(S(=O)(=O)N(C)/N=C2/C(=O)N(CC(=O)O)c3ccccc32)cc1 | i | -0.43
COc1ccc(C(=O)NC(C)Cc2cnccn2)cc1OC1CCN(C(C)C)CC1 (stereo not drawn) | i | 0.3
O=C(Nc1ccnn1C1CCN(Cc2c(F)cccc2Cl)CC1)C1CCCC1 | i | -0.01
O=C(c1cc2cc([N+](=O)[O-])ccc2s1)N1CCOCC1 | i | -0.61
O=S(=O)(c1cc(Cl)ccc1Br)N1CCCCC1 | i | -1
COCCCN(Cc1ccco1)C(=O)Cn1ncc2c([nH]c3ccccc32)c1=O | i | 0.46
O=C(NC1CCCC1)C(c1c[nH]c2ccccc12)N(C(=O)Cn1nnc(-c2ccc(Cl)cc2)n1)c1ccccc1 (stereo not drawn) | i | 0.4
CC(C)C(O)C1CCN(Cc2nc(Cc3ccccc3Cl)no2)CC1 (stereo not drawn) | i | -0.02
O=C(CSc1cccc[n+]1[O-])CSc1cccc[n+]1[O-] | i | -0.89
CCCCN(C(=O)c1ccc(N(C)S(=O)(=O)c2ccc(C)cc2)cc1)c1c(N)n(CCC)c(=O)[nH]c1=O | i | 0.42
COc1cc2ccccc2cc1C(=O)Nc1nnc(-c2ccncc2)o1 | i | 0.78
Cc1ccccc1CSCC(=O)c1c(N)n(C)c(=O)n(C)c1=O | i | 1.8
CS(=O)(=O)N(CC(=O)Nc1cccnc1)c1ccc2c(c1)OCCO2 | i | 1
O=C(NCCc1ccccc1)c1ccccc1C(=O)NCCc1ccccc1 | i | 1.1
COc1ccc(N2CC(C(=O)Nc3nnc(SCCC4OCCO4)s3)CC2=O)cc1 (stereo not drawn) | i | 0.87
CC(C)CCNC(=O)C1CC(c2cccc(F)c2)=NO1 (stereo not drawn) | i | 0.79
CC(C)OCCCNC(=O)CN1C(=O)CSc2ccc(S(=O)(=O)N3CCCCC3)cc21 | i | 2.2
Cc1cc(OCC(=O)NC(C)C)cc(C)c1Cl | i | -0.95
Cc1ccccc1CNC(=O)c1ccccc1N(C)S(=O)(=O)c1ccccc1 | -6.7* | -0.19*
CCC(=NC)C1=C(O)CC(c2ccccc2)CC1=O (stereo not drawn) | i | -0.45
COc1cccc(C=N[C@@H](CO)[C@@H](O)c2ccc([N+](=O)[O-])cc2)c1O | i | 0.06
COc1ccc(OCC(=O)NCCc2c[nH]c3ccccc23)cc1 | i | -0.23
COc1cc(CN2CC(=O)N(c3ccc(C)cc3)C2=S)cc(OC)c1OC | i | 0.68
C=CCn1c(C)cc(C(=O)CN2C(=O)c3ccccc3C2=O)c1C | i | -0.25
CN1C(=O)NC(c2cccc(O)c2)C(C(=O)c2cccs2)C1(O)C(F)(F)F (stereo not drawn) | i | 5.9
COc1ccc2c(c1)cc(C(=O)N[C@@H](Cc1ccccc1)C(=O)N[C@@H](C)C(=O)O)n2C | i | -0.77
COc1ccc(Cn2c(-c3ccc(C)cc3)nc3c(c(=O)c4ccccc4n3C)c2=O)cc1 | i | 1.5
CSc1ccccc1NC(=S)NC1CCCCC1 | i | 0.33
O=C(CN1CCN(Cc2ccccc2)CC1)NCCNc1ccc([N+](=O)[O-])cn1 | i | 1.3
Cn1c(NCc2ccccc2)nc2c1c(=O)n(Cc1ccc(Br)cc1)c(=O)n2C | i | 0.66
CC(C)N(Cc1nc(-c2ccc3c(c2)OCO3)no1)CC1CCC(=O)N1 (stereo not drawn) | i | -0.17
Cc1nn(CC(=O)NCc2cc3ccccc3[nH]2)c(C)c1[N+](=O)[O-] | i | -0.64
Nc1n[nH]c2cc(=O)n(-c3cccc(C(F)(F)F)c3)nc12 | i | 1.2
COc1ccc(Cl)cc1NC(=S)N1CCC(c2ccc(C)cc2)C1 (stereo not drawn) | i | -2.4
COc1cccc(C(c2c(C)[nH]n(-c3ccccc3)c2=O)c2c(C)[nH]n(-c3ccccc3)c2=O)c1OC | i | 0.68

Of the compounds above, these have bromine:
SMILES | KCNQ2 block | KCNQ2 block baseline
Cc1ccccc1Nc1c(-c2ccncc2)nc2ccc(Br)cn12 | i | 1.6
O=S(=O)(c1cc(Cl)ccc1Br)N1CCCCC1 | i | -1
Cn1c(NCc2ccccc2)nc2c1c(=O)n(Cc1ccc(Br)cc1)c(=O)n2C | i | 0.66

Next part
SMILES | KCNQ2 block | KCNQ2 block baseline
Cn1c(C(=O)OC(C(=O)NC2CCCCC2)c2ccncc2)cc2sccc21 (stereo not drawn) | i | 3
O=C(CCCSc1nc2ccccc2[nH]1)N1CCN(c2ccccc2)CC1 | i | 1.6
COCCN(CCOC)c1nc(-c2ccc(C)cc2)nc2ccccc12 | i | -1.2
O=C(c1ccco1)N1CCN(Cc2c(F)cccc2Cl)CC1 | i | -0.07
CC(=O)c1ccc(-c2ccc(C(=O)NC3CCCCCC3)o2)cc1 | i | 0.08
Cc1ccc(C(=O)NNC(=S)NC(=O)c2ccco2)cc1 | i | -0.85
CC/C(=N\NS(=O)(=O)c1ccc(C)cc1)c1ccco1 | i | 0.72
COc1c(C)cc(C(=O)C2CCCN(C(=O)c3ccc4[nH]ccc4c3)C2)cc1C (stereo not drawn) | i | 0.54
CC(=O)N(c1ccccc1)C1SC(=O)N(c2ccccc2)C1=O (stereo not drawn) | i | 1.4
O=[N+]([O-])c1ccc(N2CCc3ccccc3C2)nc1 | i | -0.14
COCCn1c(SCC(=O)NCCc2ccccc2)nnc1-c1ccco1 | i | -0.33
CCc1nnc(NC(=O)c2ccc(-c3ccc([N+](=O)[O-])cc3Cl)o2)s1 | i | 0.12
Fc1ccc(-c2nc3c(-c4ccccc4)cnn3cc2CCN2CCOCC2)cc1 | i | 0.39
N=c1c2c(-c3ccccc3)c(-c3ccccc3)n(Cc3ccco3)c2ncn1Cc1ccco1 | -6.9* | -2.3*
O=C1c2oc3ccccc3c(=O)c2C(c2cccc(Br)c2)N1Cc1ccco1 (stereo not drawn) | i | 0.05
CCc1cccc(NC(=O)CCCSc2nc3ccccc3[nH]2)c1 | i | -0.44
COc1ccccc1NC(=O)C(=O)N1N=C(C(C)C)CC1(O)C(F)(F)F (stereo not drawn) | i | 1.8
CCCCN1C(=O)c2cccc3cc(O)cc(c23)C1=O | i | 0.84
CN(CC(=O)Nc1cccc(F)c1)C(=O)CC1CCCCC1 | i | 0.02
CCOP(=O)(OCC)c1nc(-c2ccccc2)oc1NCc1ccccc1 | i | 0.57
COC(=O)c1ccc(NC(=O)CSc2nncn2-c2ccccn2)cc1 | i | 1.3
CCN(CC)CCN(C(=O)c1ccc(S(=O)(=O)N2CCCCC2)cc1)c1nc2cc3c(cc2s1)OCO3 | i | 0.72
COc1ccccc1CNC(=O)CCC(=O)N1CC(C)Sc2ccccc21 (stereo not drawn) | -6.3* | -0.29*
CCSc1nnc(Cc2cc(=O)[nH]c(=O)[nH]2)n1-c1ccc(F)cc1 | i | 1.8
O=C(Nc1ccccc1)OCCCCCOC(=O)Nc1ccccc1 | i | 0.25
Cc1ccc(N(CC(O)Cn2c3ccccc3c3ccccc32)S(C)(=O)=O)cc1 (stereo not drawn) | i | 0.2
O=C(O)c1cccc(N2C(=O)c3cccc(Oc4ccc(Cl)cc4)c3C2=O)c1 | i | -2.3
CCOC(=O)Cc1csc(NC(=O)CSc2nc(=O)[nH]c3c2CCCC3)n1 | i | -0.68
COC(=O)c1ccc(C(=O)OC)c(-n2c(=O)c3ccccc3c3ccccc3c2=O)c1 | i | 0.75
CC(C)(C)c1cc[n+](-c2[nH]c(=O)sc2/C=N/N=C(\[O-])c2ccccc2)cc1 | i | 0.61
Cc1ccc(C2CC(c3cccc(NS(C)(=O)=O)c3)=NN2S(C)(=O)=O)cc1 (stereo not drawn) | i | -0.29
Cc1ccc(C(=O)COC(=O)c2cnccn2)cc1[N+](=O)[O-] | i | -0.68
COc1ccc(NC(=S)N2CCCC(c3nc4ccc(C)cc4[nH]3)C2)cc1 (stereo not drawn) | i | 0.85
COc1ccc(CCCC(=O)NC2CCCCC2)cc1 | i | 1.2
COc1ccc(CNC(=O)/C=C/c2ccc(S(=O)(=O)N3CCOCC3)cc2)cc1 | i | 0.35
CCOc1ccccc1N1CCN(C(=O)CCCN2C(=O)c3cccc4cccc(c34)C2=O)CC1 | i | -3.3
CN1CCN(CC(=O)N2CCn3c4c(c5cc(C6CCCCC6)ccc53)CCCC42)CC1 (stereo not drawn) | -13* | 1.1*

Grouped by structure: the compounds so far containing a tert-butyl group (2)
SMILES | KCNQ2 block | KCNQ2 block baseline
CC(C)(C)OC(=O)NN1CC(=O)N2Cc3ccccc3C[C@@H]2C1=O | i | -2.4
CC(C)(C)c1cc[n+](-c2[nH]c(=O)sc2/C=N/N=C(\[O-])c2ccccc2)cc1 | i | 0.61

An excerpt from above in order of molar mass, smallest number first.
SMILES | KCNQ2 block | KCNQ2 block baseline
Cc1ccc(C(=O)COC(=O)c2cnccn2)cc1[N+](=O)[O-] | i | -0.68
CC(C)(C)c1cc[n+](-c2[nH]c(=O)sc2/C=N/N=C(\[O-])c2ccccc2)cc1 | i | 0.61
Cc1ccc(C2CC(c3cccc(NS(C)(=O)=O)c3)=NN2S(C)(=O)=O)cc1 (stereo not drawn) | i | -0.29
CN1CCN(CC(=O)N2CCn3c4c(c5cc(C6CCCCC6)ccc53)CCCC42)CC1 (stereo not drawn) | -13* | 1.1*
CCOc1ccccc1N1CCN(C(=O)CCCN2C(=O)c3cccc4cccc(c34)C2=O)CC1 | i | -3.3

Assay outcomes from PubChem BioAssay.
